TRPML1 inh – inhibitors of human TRPML1 channel | AID 624415 | actives 0.02% (n = 390,000) | activity change, negative = inhibition, % (no concentration beside the values) | TRPML1-inducible cells, Ca2+ dye fluorescence, FDSS; stronger effect = lower value; inhibition of EC80 agonist-evoked calcium signal | Q9GZU1; in the data active means activity change below about -50%; inconclusive means about -30% to -50%; inactive means above about -30%;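 further: stimulus is agonist 54-4 at its EC80 concentration; on the % scale 0 is the no-effect control and ±100 the full control effect; compound concentration not given in the record; the text of the record puts the active cut at -80%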
Target sequence (Q9GZU1 whole entry, looked up): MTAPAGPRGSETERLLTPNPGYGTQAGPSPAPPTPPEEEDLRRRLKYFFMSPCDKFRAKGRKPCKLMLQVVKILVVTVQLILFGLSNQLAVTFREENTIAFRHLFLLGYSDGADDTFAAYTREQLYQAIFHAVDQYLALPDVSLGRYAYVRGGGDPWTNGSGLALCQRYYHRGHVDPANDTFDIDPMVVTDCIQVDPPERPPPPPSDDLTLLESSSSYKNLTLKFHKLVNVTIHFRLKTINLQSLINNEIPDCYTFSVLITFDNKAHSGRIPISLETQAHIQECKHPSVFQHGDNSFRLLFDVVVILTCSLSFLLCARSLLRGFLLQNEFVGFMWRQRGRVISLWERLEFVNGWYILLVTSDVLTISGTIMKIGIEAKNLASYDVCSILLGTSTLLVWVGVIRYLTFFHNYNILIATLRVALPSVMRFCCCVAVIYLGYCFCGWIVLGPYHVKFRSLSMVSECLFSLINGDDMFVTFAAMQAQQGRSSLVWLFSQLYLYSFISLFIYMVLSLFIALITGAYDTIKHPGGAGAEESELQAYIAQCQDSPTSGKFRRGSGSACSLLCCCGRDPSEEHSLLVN
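TRPML1-DL cells, Tet-induced overnight (~16 h, 37 °C) at 1,500 cells/well, were loaded with Ca8 no-wash dye plus quencher for 45-90 min at room temperature. Compounds were pinned during FDSS kinetic reading; agonist 54-4 at EC80 (4 uM final) then added.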
TRPV1 PAM – potentiators of human vanilloid receptor 1 (TRPV1). AID 540277. TRPV1-expressing cells, Fluo-8 calcium influx, capsaicin EC20 potentiation; host cell line not named in the record; control for the full effect not named in the record. actives 0.02% (n = 320,000). Q8NER1. potentiation, % at 8.33 µM; active means potentiation above 80%; inconclusive means 30% to 80%; inactive means below 30%; further: 0% is about no effect
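TRPV1-expressing cells were cultured overnight at 35.5C and loaded with Fluo-8 calcium dye for 40 to 90 min at room temperature. After a 10 s baseline, compound was added and calcium influx was read kinetically for 3 min (ex 480/em 520 nm).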
CtBP-E1A inh – blocks the CtBP interaction with E1A; AlphaScreen GST-E1A/His-CtBP binding, 1536-well; stronger effect = lower value; control for the full effect not named in the record; activity change, % (no concentration beside the values); actives 0.49% (n = 340,000); AID 651724; in the data active means activity change below about -65%; inconclusive means about -30% to -65%; inactive means above about -30%; further: on the % scale 0 is the no-effect control and ±100 the full control effect; compound concentration not given in the record
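Protein mix (5X: 125 nM each GST-E1A, His-CtBP) was incubated with pinned compound 2 h at 37 deg C in dark, in 50 mM Tris pH 8.0 buffer with 300 mM NaCl. Glutathione donor and nickel acceptor beads followed; AlphaScreen signal read after 1 h.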
D2 PAM – potentiates the human D2 dopamine receptor allosterically; P14416; DiscoveRx D2 beta-arrestin cells, luminescence, 90 min; 100% = 57 uM dopamine signal; potentiation, % (no concentration beside the values); actives 0.23% (n = 360,000); active = potentiation of 50% or more; inconclusive = 30% to 50%; inactive = 30% or less;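 further: compound concentration not given in the record; tested on top of an EC20 dose of dopamine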
Target sequence (P14416 whole entry, looked up): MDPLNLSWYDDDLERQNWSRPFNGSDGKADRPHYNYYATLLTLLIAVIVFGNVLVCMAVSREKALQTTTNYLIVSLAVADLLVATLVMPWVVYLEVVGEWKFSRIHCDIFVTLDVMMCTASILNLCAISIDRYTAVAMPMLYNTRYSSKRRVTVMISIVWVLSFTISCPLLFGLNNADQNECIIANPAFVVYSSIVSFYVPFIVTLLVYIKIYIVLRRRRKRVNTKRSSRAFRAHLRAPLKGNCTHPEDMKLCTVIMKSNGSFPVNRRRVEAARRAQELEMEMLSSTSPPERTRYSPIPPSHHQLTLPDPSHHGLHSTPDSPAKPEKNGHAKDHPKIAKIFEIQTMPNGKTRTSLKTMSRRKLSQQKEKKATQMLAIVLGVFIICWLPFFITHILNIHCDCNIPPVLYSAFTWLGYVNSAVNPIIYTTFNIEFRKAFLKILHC
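PathHunter D2 cells, attached overnight at 37 deg C, received compound in DMSO plus dopamine at EC20 (50 nM final) for 90 min at 37 deg C. Beta-arrestin recruitment was read as luminescence after 1 h with detection reagent at ambient temperature.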
Six1-Eya2 blk – Six1/Eya2 interaction inhibition; AlphaScreen GST-Six1/His-Eya2 binding, biochemical; stronger effect = lower value; control for the full effect not named in the record; actives 0.56% (n = 360,000); AID 651725; activity change, % (test concentration not listed); Q15475+O00167; in the data active = activity change below about -65%; inconclusive = about -30% to -65%; inactive = above about -30%; further: on the % scale 0 is the no-effect control and ±100 the full control effect; compound concentration not given in the record
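Compounds are tested against tagged Six1 and Eya2 proteins bridged by glutathione donor and nickel acceptor beads; after a one-hour incubation at 37 °C without light, AlphaScreen emission is recorded.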
TRPML1 ag – human mucolipin-1 channel agonism; Q9GZU1; TRPML1-expressing cells, Ca2+ dye fluorescence, FDSS; host cell line not named in the record; reference of the full effect not given here; activation, % (concentration not given with the values); actives 0.12% (n = 410,000); in the data active = activation above about 50%; inconclusive = about 30% to 50%; inactive = below about 30%; further: 0% is about no effect; the text of the record puts the active cut at 80%
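TRPML1-DL cells, Tet-induced overnight (~16 h, 37 degrees C), loaded 45-90 min at room temperature with Ca8 no-wash calcium dye plus quencher. FDSS fluorescence: 10 s baseline, compound pin-transfer, 110 s agonist read, then EC80 54-4 (4uM final) and 110 s antagonist read.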
* marks the source's active call; other numbers are inactive results; u = inconclusive; x = no result given; & = joins results of further samples.

Sequence of screens – TRPML1 ag, TRPML1 inh, TRPV1 PAM, CtBP-E1A inh, D2 PAM, Six1-Eya2 blk
> N#C/C(=C\c1ccc(C(=O)O)cc1)c1ccccn1
  -0.7, -12, -8, 2, -6, -1
> Cc1c(C(=O)NCc2ccc(F)cc2)oc2ccc(S(=O)(=O)N3CCOCC3)cc12
  -0.5, 13, 3, -11, 4, -4
> CCOC(=O)N1CCN(S(=O)(=O)c2ccc(C(=O)N(CCCN(C)C)c3nc4ccc(OC)cc4s3)cc2)CC1
  0.4, 4, -5, -21, -15, -24
> COc1ccccc1C1C(C(C)=O)=C(O)C(=O)N1CCc1ccccc1 (configuration not stated)
  5.8, -24, 2, -10, -16, 2
> Cc1cccc(NC(=O)c2ccc3nccnc3c2)c1C
  0.3, -5, -2, -8, -6, 5
> CC(=O)Nc1cc(-c2ccccc2F)cn2c(-c3cccc(C(F)(F)F)c3)cnc12
  -0.8, x, x, -8, 7, -6
> CC1(C)CC(=O)C=C(c2ccc(Oc3ccccc3)cc2)C1=O
  0.6, -7, x, -15, 1, -22
> C/C=C/c1ccc(OCC(O)CNCC(c2ccc(OC)cc2)N(C)C)c(OC)c1 (configuration not stated)
  1.5, 8, -5, 3, -25, -1
> CCCC(=O)c1c[nH]c(C(=O)NCCCN2CCOCC2)c1
  6.1, -2, -5, -3, -1, 19
> C=CCn1c(NC(=O)c2ccc(C)cc2)nc2ccccc21
  -0.1, 2, 5, 5, -4, 1
> c1ccc(-c2ccc3sccc3n2)cc1
  0.1, 31, x, 14, -8, 9
> CCN(CC(=O)NCCc1ccc(S(N)(=O)=O)cc1)Cc1ccccc1
  -0.1, -8, 23, 0, -13, 0
> COC(=O)c1ccc(=O)n(Cc2ccc3c(c2)OCO3)c1
  -0.7, 5, -23, 4, -9, 4
> Cc1ccc(C(=O)C(C)OC(=O)C2CCN(c3ccc(C(F)(F)F)cn3)CC2)cc1C (configuration not stated)
  0.5, 11, 0, 32, 8, 17
> Cc1ccc(C)c(NC(=O)CSc2ccc(S(=O)(=O)N3CCCC3)cn2)c1
  -1.4, -10, -7, x, -8, 20
> COc1cc(N=c2oc3c(C)ncc(CO)c3cc2C(N)=O)cc(OC)c1OC
  -0.9, 13, -9, 0, -12, -79*
> Cc1cc(C)c(C(=O)COC(=O)c2cc([N+](=O)[O-])ccc2N2CCOCC2)cc1C
  -0.7, 12, -5, 12, -17, -7
> O=C(Nc1ccccc1O)c1ccc(NS(=O)(=O)c2cccc3cccnc23)cc1
  0.1, 44, -9, 17, 17, -6
> Cc1cccc(OCCn2nc(C(=O)O)c3ccccc3c2=O)c1
  2.5, 19, -20, -6, -7, -9
> CCC(CO)NCc1ccccc1OC(C)C (configuration not stated)
  -0.5, 2, -2, x, -14, 3
> N#CCc1ccc(OC(=O)c2cnccc2C(F)(F)F)cc1
  -0.3, -6, -28, 3, 4, -2
> O=C(NNC(=O)c1cc2ccccc2cc1O)Nc1ccc(F)cc1F
  1.7, -10, -5, -6, 13, 7
> COCCCNC(=O)CC(NS(=O)(=O)c1ccc(Cl)cc1)c1ccco1 (configuration not stated)
  -0.6, 5, 3, 2, -2, 1
> CCOc1ccc(C(=O)NCC(=O)OCc2csc(-c3ccccc3)n2)cc1
  9.1, -13, -5, -2, -2, 4
> O=C(CN(C(=O)c1csnn1)c1ccc(F)c(Cl)c1)NC1CCCCC1
  -0.1, -4, 5, 1, 3, 4
> COC(=O)c1cc(C(=O)OC)n(Cc2ccc(F)cc2)n1
  0.6, 15, 7, 6, 2, 2
> COc1cc(-c2nc3ccccn3c2N)ccc1O
  -0.7, -11, -4, x, 1, 5
> CN1CCN(C(=O)c2ccc(CS(=O)Cc3ccc(Cl)cc3)o2)CC1 (configuration not stated)
  -0.2, -6, -16, 1, -9, 4
> CO/N=C(/CNC(=O)c1ccc(Cl)cc1Cl)c1ccc(Cl)cc1
  -1.5, -6, -12, 11, 8, 5
> COc1ccc(C(=O)Nc2ccc(S(=O)(=O)Nc3onc(C)c3C)cc2)cc1OC
  -0.6, 17, -7, u, 1, -22
> O=C(Nc1nnc(C2CC2)s1)c1cccc(S(=O)(=O)N2CC(c3ccccc3)CC2=O)c1 (configuration not stated)
  0.3, 6, x, 6, 0, 0
> Cc1cc(Sc2nc(N(C)C)nc(N(C)C)n2)nc(Cl)n1
  0.9, -8, 1, 1, -3, 23
> O=C(OCCCOC(=O)c1cc[n+]([O-])cc1)c1cc[n+]([O-])cc1
  0.8, -3, 1, -7, -9, 6
> Nc1ccc(S(=O)(=O)Nc2cc(Cl)c(N)c(Cl)c2)cc1
  1.8, -21, x, 7, -3, 1
> COc1cccc(NC(=O)c2cccc(C)c2[N+](=O)[O-])c1
  -1.0, 0, -1, 4, -1, 6
> Cc1ccsc1/C=C1\Oc2cc(OCC(=O)c3ccccc3)ccc2C1=O
  1.8, -4, -5, -2, 1, -5
> O=C(CCCn1c(=S)[nH]c2ccc(Br)cc2c1=O)N1CCN(c2ccccn2)CC1
  2.2, 5, x, -10, -12, -12
> CCCCn1c(SCC(=O)Nc2cc(C(F)(F)F)ccc2Cl)nnc1C(CC)N(C)C (configuration not stated)
  0.5, 5, -7, 12, -40, -2
> O=C(O)c1ccccc1NC(=O)C1CCCO1 (configuration not stated)
  0.3, 17, -6, 7, -1, 4
> CCC1CCCCN1CCCNS(=O)(=O)c1ccc2c(c1)oc(=O)n2C (configuration not stated)
  2.4, -4, 9, 1, -10, -8
> Oc1ccc(Cl)cc1CNCc1ccc(Cl)cc1
  -0.4, 12, 28, 3, -81, 10
> COc1ccc(CN(C)S(=O)(=O)c2nnc(NC(=O)c3ccc(C)cc3)s2)cc1OC
  0.1, -6, 4, x, 1, -2
> Cc1ccc(CNS(=O)(=O)c2c(C(=O)N3CCCCCC3)c(C)n(C)c2C)cc1
  -0.5, 3, 8, 2, -9, 2
> Cc1cc(=O)oc2cc(OCCC[n+]3ccccc3)ccc12
  1.2, -1, -14, 0, -4, 0
> C=CCNc1nc(Cl)nc(Nc2ccc(OCC)cc2)n1
  -0.1, -8, 1, x, -8, -1

Four compounds already listed, ordered by length of the SMILES, smallest number first:
Sequence of screens – TRPML1 ag, TRPML1 inh, TRPV1 PAM, CtBP-E1A inh, D2 PAM, Six1-Eya2 blk
> C=CCNc1nc(Cl)nc(Nc2ccc(OCC)cc2)n1
  -0.1, -8, 1, x, -8, -1
> COc1cccc(NC(=O)c2cccc(C)c2[N+](=O)[O-])c1
  -1.0, 0, -1, 4, -1, 6
> Cc1ccsc1/C=C1\Oc2cc(OCC(=O)c3ccccc3)ccc2C1=O
  1.8, -4, -5, -2, 1, -5
> COc1ccc(CN(C)S(=O)(=O)c2nnc(NC(=O)c3ccc(C)cc3)s2)cc1OC
  0.1, -6, 4, x, 1, -2

Remaining list, next part.
Sequence of screens – TRPML1 ag, TRPML1 inh, TRPV1 PAM, CtBP-E1A inh, D2 PAM, Six1-Eya2 blk
> CSc1ccccc1OCc1cc(C(=O)NCCN2CCCc3ccccc32)no1
  1.9, 1, -2, -7, -24, -19
> O=C(Cc1c(F)cccc1Cl)NCC1CCCO1 (configuration not stated)
  0.8, 1, 2, 7, -12, 7
> Cn1cc(C[C@H](NC(=O)OC(C)(C)C)C(=O)N[C@@H](CO)Cc2ccccc2)c2ccccc21
  -0.4, -3, x, -1, -5, -7
> NC(=O)CCN1CCN(S(=O)(=O)/C=C/c2ccccc2)CC1
  0.7, 4, u, -4, -1, 0
> CCCc1c(C(=O)N2CCN(c3ccccc3OC)CC2)cnn1-c1ccccc1
  0.0, 40, 0, -14, -4, -12
> O=C1N(Cc2ccccc2)CCCC12CCCN(Cc1ccccc1)C2=O
  0.0, 2, 2, 2, 8, -2
> COc1ccc(CC(=O)Nc2cccc(S(=O)(=O)N3CCCCCC3)c2)cc1OC
  0.7, -9, -19, -2, -9, -10
> COc1ccc(C(CNC(=O)c2oc3ccc(OC)cc3c2C)N2CCCC2)cc1 (configuration not stated)
  0.5, 9, 11, 0, -46, 15
> Cc1ccccc1CNC(=O)C1CCCN(c2nnc(C)c3c(C)n(-c4ccccc4)nc23)C1 (configuration not stated)
  3.2, 21, -33, -23, 7, 1
> COc1ccc(-c2cc(C(=O)Nc3ccc(OC)c(OC)c3)[nH]n2)c(C)c1
  -1.0, x, x, -29, -5, -4
> CCc1c(Cl)nc(N)nc1Nc1ccccc1C
  0.1, 7, x, 5, 8, -1
> CCc1ccc(-c2cc(C(F)(F)F)n3nc(C(=O)Nc4c(C)nn(Cc5ccc(F)cc5)c4C)cc3n2)s1
  1.6, 6, 3, -11, -9, -5
> CC(=O)NC(Cc1ccccc1)C(=O)Oc1ccc2ccccc2c1 (configuration not stated)
  0.3, -19, x, -12, 0, 1
> O=C(CSc1nnc(NC(=O)C2CC2)s1)Nc1ccc(F)cc1
  1.1, -1, 2, -4, -4, 8
> CC1(C(=O)NS(=O)(=O)c2cccc(F)c2)CCN1C(=O)CCc1ccccc1 (configuration not stated)
  -0.5, x, x, -2, 3, 2
> O=C(OCC1CCNCC1)c1ccc(F)cc1
  0.9, -8, x, x, -40, -2
> COc1cccc(OC)c1C(=O)Nc1ccc2c(c1)CCCN2S(=O)(=O)c1ccc(C)cc1
  0.9&1.5, 69&72, 23, -1, -7, 4
> CC(CN1CCCCC1)OC(=O)COc1ccc(Br)cc1 (configuration not stated)
  0.1, 4, -8, 0, -4, 7
> CC(=O)N1CC(C)Sc2ccc(S(=O)(=O)NC(C)c3ccccc3)cc21 (configuration not stated)
  0.0, -10, -26, -7, -4, 1
> CC(=O)c1ccc(S(=O)(=O)N2CCN(C(=O)CSc3ccc(C)c(C)c3)CC2)cc1
  0.3, 13, 4, -3, 0, 0
> Cc1ccc(-c2nnc(SCC(=O)Nc3ccccc3N3CCOCC3)o2)cc1
  -0.6, -21, 16, 9, -11, 3
> OC(CN1CCN(c2ccc(C(F)(F)F)cn2)CC1)c1ccccc1 (configuration not stated)
  -0.3, -6, 5, x, -20, 7
> CC(=O)c1c(C)[nH]c(-c2ccccc2)c1C
  0.2, -12, -15, 0, -16, -2
> Cc1nn(-c2ccccn2)c2c1C(c1ccccc1Cl)C1=C(N2)c2ccccc2C1=O (configuration not stated)
  0.1, -12, -11, 4, -16, -24
> Cc1nc2sc(C(=O)OC(C)C)c(N)c2c(C)c1C
  -0.6, 7, 4, 15, 12, 10
> CC(C)(C)S(=O)N1Cc2cc(CO)cc(CCO)c2[C@@H]1CCO (some centres not stated)
  -0.6, -7, x, 5, x, -2
> CNC(=O)CSc1nc2cccnc2n1-c1ccc(F)cc1
  -0.4, -10, -3, 8, -13, 5
> N#Cc1ccccc1C[C@H](N)C(=O)NC[C@H]1O[C@@H](n2cnc3c(N)ncnc32)[C@H](O)[C@@H]1O
  -0.6, 3, x, 0, 1, 3
> Cc1nc(C(=O)NNC(=O)c2ccc(C(F)(F)F)cc2)cs1
  -0.8, 1, 2, -2, 2, -8
> CCN1C[C@@H]2[C@@H]3C(=O)N(C)C(=O)[C@@H]3[C@](Cc3ccccc3)(C1=O)N2C(=O)c1ccc(Cl)c(Cl)c1
  -0.1, 7, x, 4, -7, 0
> CN(C(=O)CSc1nc2ccccc2c(=O)n1-c1ccc(F)cc1)C1CCS(=O)(=O)C1 (configuration not stated)
  2.2, -18, 2, 1, 0, 2

Source: PubChem (National Center for Advancing Translational Sciences (NCATS))
